HCMV UL50-53 inh: inhibitors of HCMV UL50-UL53 nuclear egress complex interaction; inhibition, % (test concentration not listed); HTRF UL50-UL53 interaction, normalized percent inhibition; 190,000 compounds, 0.15% hits; AID 1918969;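 active = both replicates at 50% or more, plus weaker picks with an unusually low signal ratio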;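 note: stock transfer was 100 nL into about 20 µL; 0% = negative control wells and 100% = wells with untagged competitor protein; inactives centre near -12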
Sa growth inh: S. aureus growth inhibition; S. aureus RN4220 growth, OD600, 20 h, 42 °C; active compounds read low; 170,000 compounds, 0.53% hits; relative growth, % (concentration not given with the values);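 active = growth at 42 °C up to 50% and 20 or more points under that at 30 °C, or under 10% at both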;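 note: 300 nL library stock went into each well; scaled to the means of positive and negative controls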
GIV-Gai inh: blocks GIV peptide binding to rat Galpha-i3 | P08753 | Galpha-i3/FITC-GIV peptide fluorescence polarization, 90 min; active compounds read low; scaled: aluminum fluoride 0%, vehicle 100% | percent of control (FP), % (test concentration not listed) | 210,000 compounds, 0.42% hits | AID 1224905;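 active = replicate mean at 85% of control or lower, very high polarization wells dropped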;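 note: lower values mean more displacement of the GIV peptide from Galpha-i3; wells of about 15 µL received 100 nL stock; the first replicate is given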
Target sequence (P08753 whole entry, looked up): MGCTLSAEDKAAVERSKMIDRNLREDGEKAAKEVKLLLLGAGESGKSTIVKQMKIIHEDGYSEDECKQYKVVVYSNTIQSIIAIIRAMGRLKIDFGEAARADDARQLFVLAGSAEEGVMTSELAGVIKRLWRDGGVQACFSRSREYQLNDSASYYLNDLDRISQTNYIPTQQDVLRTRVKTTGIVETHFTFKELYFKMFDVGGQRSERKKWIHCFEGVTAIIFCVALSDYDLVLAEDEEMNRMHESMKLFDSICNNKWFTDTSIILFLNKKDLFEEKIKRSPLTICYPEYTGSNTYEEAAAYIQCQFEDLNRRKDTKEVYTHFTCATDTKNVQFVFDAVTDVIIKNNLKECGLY
Sa growth inh second temp: also measured in Sa growth inh; calls as there; relative growth, %; measured here: growth at 30 °C;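 optical density after 20 h as mean of two plates; 100% = untreated growth and lower means inhibition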
Numbers without * were called inactive; · = not tested or not shown; & = joins results of further samples.

| Molecule | HCMV UL50-53 inh | Sa growth inh | Sa growth inh second temp | GIV-Gai inh |
| --- | --- | --- | --- | --- |
| Cc1ccc(CNC(=O)c2ccc3c(c2)c(C)c(C)n3Cc2ccc(Cl)cc2)o1 | · | 90 | 91 | 109 |
| COc1ccc(C2=NN(C(=O)c3cc([N+](=O)[O-])c(N4CCOCC4)c([N+](=O)[O-])c3)C(c3cccc([N+](=O)[O-])c3)C2)cc1 (stereo unspecified) | -1 | · | · | 97 |
| N#Cc1c(F)cccc1NC(=O)COCC(=O)O | -27 | 87 | 91 | 93 |
| Cc1ccc(OCC(=O)Nc2ccc(S(=O)(=O)Nc3cc(C)on3)cc2)c(Br)c1 | -10 | 73 | 51 | 101 |
| CCCC(=O)C1=C(c2ccc(OC)c(OC)c2)N(C(=O)CCC)n2cnnc2S1 | 0 | · | · | 107 |
| CC(C)=C1C(=O)N(c2ccccc2)C(=S)N1c1ccccc1 | -24 | 127 | 98 | 103 |
| CC1=C(C#N)C(c2ccc(N(C)C)cc2)C(C(=O)Nc2ccccc2)=C(C)N1 (stereo unspecified) | -20 | 112 | 88 | · |
| CCc1cccc(NC(=O)CCS(=O)(=O)c2ccc3c(c2)SCC(=O)N3)c1 | · | 106 | 79 | 105 |
| O=C(Cn1nc(N2CCN(c3ccccc3)CC2)ccc1=O)NCCN1CCCC1 | -8 | · | · | 103 |
| COc1ccc(NC(=O)CCNS(=O)(=O)c2cccc3nsnc23)cc1 | · | 85 | 85 | 104 |
| O=c1cc[nH]c2c1ccc1c(O)ccnc12 | -16 | 75 | 60 | 111 |
| NC(=O)CCc1nc(-c2ccccc2)no1 | -16 | 92 | 89 | 96 |
| COCc1nc2ccccc2n1Cc1cccc2ccccc12 | 0 | 86 | 84 | · |
| Cc1cccc(NC(=O)c2oc3ccccc3c2NC(=O)c2cc(-c3ccccc3)on2)c1 | -22 | · | · | 96 |
| CCc1ccc(NC(=S)N2CCC(N(C)C(C)C)CC2)cc1 | · | 93 | 100 | 101 |
| Cc1nc(-c2ccc(NC(=O)COCC(=O)O)cc2)cs1 | -12 | 92 | 91 | 105 |
| CCOc1cc(C2c3c(oc4cc(C)cc(C)c4c3=O)C(=O)N2CCO)ccc1O (stereo unspecified) | -53 | 110 | 86 | 97 |
| O=C(C1CC(c2ccccc2F)=NO1)N1CCCCCC1 (stereo unspecified) | -2 | 100 | 96 | 104 |
| Cn1c(=O)c2c(nc3n(Cc4ccc(F)cc4)c(-c4ccc(Cl)cc4)cn23)n(C)c1=O | -27 | · | · | 100 |
| COc1ccc(/C=C/C(=O)N2CCN(c3ccccc3)CC2)cc1OC | -70 | 95 | 78 | · |
| COCCCNC(=O)CSc1nc2cc3c(cc2c(=O)n1CCCC(=O)NCc1ccc(OC)cc1)OCO3 | · | 90 | 87 | 101 |
| CCOC(=O)c1c(NC(=O)c2cccc(Cl)c2)sc(C(=O)Nc2ccc(OC)cc2OC)c1C | -26 | · | · | 94 |
| CCCCOC(=O)c1cc(-c2ccc(C=C3C(=O)NC(=S)NC3=O)o2)ccc1Cl | 13 | · | · | 110 |
| O=c1[nH]ccc2c1c(=O)[nH]c1ccccc12 | 6 | 99 | 86 | 110 |
| CCN1C2OC3OC4C(OC3OC2N(CC)S1(=O)=O)N(CC)S(=O)(=O)N4CC (stereo unspecified) | 7 | 88 | 96 | · |
| On1onc2c3cc(-c4ccccc4)nc3ccc21 | -23 | 131 | 35 | · |
| CCOc1ccc(NC(=O)C(NS(=O)(=O)c2ccc3c(c2)CCN3C(C)=O)C(C)C)cc1 (stereo unspecified) | 8 | 81 | 98 | 106 |
| CCOc1ccc(NC(=O)CC2C(=O)N(c3ccc(F)cc3)C(=O)N2Cc2ccc(OC)c(OC)c2)cc1 (stereo unspecified) | -23 | 104 | 89 | 101 |
| CCOc1ccccc1C(=O)Nc1ccc(-c2ccc3nncn3n2)cc1 | -57 | 101 | 74 | 108 |
| CCOc1ccccc1NC(=O)NCc1ccc2c(c1)CCN2C(=O)c1ccccc1 | · | 97 | 108 | 111 |
| Cc1cc2cc(CCNS(=O)(=O)c3ccc(Br)cc3)c(=O)[nH]c2cc1C | -7 | 111 | 74 | 107 |
| O=C(COc1ccccc1Br)N1CCCCC1 | · | 109 | 89 | 103 |
| CCOc1ccc(NC(=O)CN2CCN(CC(=O)Nc3ccc(N(CC)CC)cc3)CC2)cc1 | · | 82 | 89 | 102 |
| Cc1ccc(NC(=O)Cn2c(=O)c(C(F)(F)F)nc3ccccc32)cc1C | · | 88 | 86 | 101 |
| COc1cccc(NCc2nnc3n2CCCCC3)c1 | · | 83 | 90 | 100 |
| CCc1cc(C(Nc2ccccn2)c2ccsc2)c(NC(=O)c2ccccc2)s1 (stereo unspecified) | -11 | · | · | 108 |
| O=C1CN(c2nc(-c3ccccc3)c3ccccc3n2)c2ccccc2N1 | -14 | · | · | 102 |
| COCCN(C(=O)C1CC1)c1nnc(-c2cccc(C)c2)s1 | 2 | 103 | 78 | 103 |
| Cc1cccn2c(=O)c3cc(C(=O)NC(C)c4ccccc4)c(=N)n(CC4CCCO4)c3nc12 (stereo unspecified) | · | 71 | 72 | 107 |
| O=C(C1CCCN(S(=O)(=O)c2cccc3nsnc23)C1)N1CCN(c2ccccc2F)CC1 (stereo unspecified) | -28 | 99 | 79 | 100 |
| Cc1nn(-c2ccccc2)c2c1CN(C(=O)NC1CCCC1)C(c1ccc(N(C)C)cc1)c1cccn1-2 (stereo unspecified) | 15 | · | · | 108 |
| CCc1cccc(NCC(O)Cn2nnnc2-c2ccccc2)c1 (stereo unspecified) | · | 103 | 89 | 105 |
| CCOC(=O)Cc1csc(SCC(=O)Nc2cccc(C#N)c2)n1 | -10 | 99 | 87 | · |
| CC(C)(C)C(=O)C(C#N)=C1SCCCS1 | -21 | 104 | 82 | 96 |
| O=C(COc1ccccc1[N+](=O)[O-])Nc1cccc(-c2nc3ccccc3s2)c1 | -20 | 109 | 66 | 107 |
| COC(=O)c1cc(-c2ccccc2)sc1N | -9 | 78 | 73 | 103 |
| O=S(=O)(NCc1csc(-c2cccs2)n1)c1ccccc1 | -39 | 101 | 79 | 102 |
| CCC1CN(Cc2ccccc2)CCC1=O (stereo unspecified) | -4 | 96 | 72 | 100 |
| COC(=O)C1=C(C)NC(C)=C(C(=O)OC)C1c1cc2ccc(OC)cc2[nH]c1=O | -10 | 73 | 94 | 101 |
| Cc1cccc2cc(CN(C(=O)C(F)(F)F)C3CCCC3)c3nnnn3c12 | -8 | 105 | 89 | 99 |
| Cc1ccc2[nH]c(C)c(CCN(Cc3ccco3)C(=S)Nc3cccc(C)c3C)c2c1 | · | 83 | 83 | 98 |
| O=c1n(Cc2cccc(C(F)(F)F)c2)nnn1-c1ccccc1 | -6 | 100 | 95 | · |
| O=c1cc(CSc2nnc(N3CCOCC3)n2-c2cccc(F)c2)nc2sc3c(n12)CCCC3 | -13 | 92 | 93 | · |
| COc1ccc(CNC(=O)CCCn2ncc3ccc(C)cc32)cc1 | -21 | 92 | 83 | 95 |
| CN(C)c1ccc(NC(=O)CSc2nc3ccccc3c(=O)n2CC2COc3ccccc3O2)cc1 (stereo unspecified) | -26 | 111 | 95 | 101 |
| O=c1[nH][nH]c2ccccc2c1=O | -39 | 86 | 77 | 102 |
| CC(C)NC(=O)c1ccc(CS(=O)(=O)c2ccc(Br)cc2)o1 | 4 | 116 | 99 | 109 |
| O/N=C1/CCN(Cc2ccccc2)C1 | -2 | 96 | 87 | 102 |
| Cc1cccc(NCc2ccc(N(C)C)cc2)n1 | -5 | 99 | 79 | 103 |
| CCOC(=O)c1nccn1CC(=O)N(CC)c1cccc(C)c1 | -16 | 74 | 88 | 100 |

Following part
| Molecule | HCMV UL50-53 inh | Sa growth inh | Sa growth inh second temp | GIV-Gai inh |
| --- | --- | --- | --- | --- |
| O=C(Nc1ccc(Cl)cc1Cl)c1cccnc1SCCS(=O)(=O)c1ccccc1 | -2 | 118 | 97 | 97 |
| O=C(CSc1nc2ccccc2[nH]1)N1CCc2ccccc2C1 | 4 | 109 | 93 | · |
| Cc1cc(-c2ccccc2C(=O)NC2CCCCC2)on1 | 39 | 91 | 84 | 101 |
| COC(=O)c1ccccc1N=Nc1c(N)[nH][nH]c1=O | -109 | 92 | 77 | 105 |
| CCN(CC)C(=O)CSc1nc(-c2ccccc2)cn1N | -15 | 85 | 95 | · |
| CCN(CC)CC(=O)NC1(C)CCCCC1c1ccc(O)cc1 (stereo unspecified) | -8 | 139 | 97 | 104 |
| FC(F)(F)c1ccc(-c2csc(-c3ccno3)n2)cc1 | 2 | 113 | 77 | 105 |
| CCc1ccc(NC(=O)CSc2nc3c([nH]c4ccccc43)c(=O)n2-c2ccc(C)cc2)cc1 | · | 97 | 101 | 112 |
| Cc1ccc(N2C(=O)C(Cc3ccccc3)N=C2N(CCN(C)C)Cc2ccco2)c(C)c1 (stereo unspecified) | 10 | 105 | 93 | 106 |
| CC1Oc2ccccc2N(CC(=O)NCc2ccccc2)C1=O (stereo unspecified) | -10 | 116 | 94 | 105 |
| Cc1cccc(NC(=O)CSc2cn(CC(=O)N3CCOCC3)c3ccccc23)c1 | · | 116 | 98 | 108 |
| Cc1ccc(CC(=O)Nc2ccc3nc(N4CCN(c5ncccn5)CC4)cc(C)c3c2)cc1 | 2 | 101 | 97 | 104 |
| CCc1ccc(CNC(=O)c2cnc(N3CCCCC3)c3ccccc23)cc1 | · | 89 | 94 | 106 |
| O=S(=O)(c1ccc2ccccc2c1)n1nc(-c2ccco2)nc1NCc1cccc(Cl)c1 | -15 | 103 | 93 | 100 |
| O=C(NCc1cccnc1)c1csc2ccccc12 | -5 | 111 | 99 | 104 |
| CCCC(C(=O)Nc1ccccc1F)N1Cc2ccccc2C1=O (stereo unspecified) | 1 | 94 | 88 | 100 |
| O=C1CCCC2=C1C(c1ccncc1)n1c(nc3ccccc31)N2 (stereo unspecified) | 3 | 94 | 93 | 111 |
| Cc1ccccc1C(=O)c1cccn1CC(=O)NC(C)c1ccc2c(c1)OCCO2 (stereo unspecified) | · | 107 | 84 | 106 |
| N#Cc1ccccc1N=Cc1ccccc1O | 8 | 105 | 99 | 99 |
| Cc1ccc(NC(=O)CSc2cc(=O)n(C)c3ccc(Cl)cc23)c(Br)c1 | -20 | 107 | 92 | 108 |
| CCc1ccc2occ(CC(=O)Nc3sc4c(c3C(=O)OC)CCC4)c2c1 | -10 | 111 | 88 | 111 |
| O=c1c2ccccc2n2c(=O)n(Cc3ccccc3)nc2n1Cc1ccccc1 | -28 | · | · | 104 |
| CC1=C(C(=O)OCC2CCCO2)C(c2cccc(OCc3ccccc3)c2)NC(=O)N1 (stereo unspecified) | 4 | · | · | 99 |
| COCCCNC(=O)C1CCC(Cn2c(=O)c3sccc3n(Cc3ccc(F)cc3)c2=O)CC1 (stereo unspecified) | · | 107 | 88 | 100 |
| COc1cccc(Cc2nc3ccccc3nc2SCC(=O)NCc2ccc(C)cc2)c1 | · | 81 | 87 | 101 |
| Cc1ccc(CNC(=O)C2CCCN(Cc3nc(-c4cccc(C)c4)oc3C)C2)cc1 (stereo unspecified) | 12 | 87 | 97 | 106 |
| CCc1cc2c3c(c(=O)oc2cc1OCC(=O)OC(C)(C)C)CCCC3 | · | 107 | 98 | 99 |
| O=C(CSc1ccccc1Cl)NCc1ccccc1Cl | 10 | 88 | 95 | · |
| CCc1ccc(NC(=S)N(Cc2cccnc2)Cc2ccco2)cc1 | -12 | 99 | 74 | 104 |
| CCc1ccc(NC(=O)Cn2c(=O)ccc3cc(S(=O)(=O)N4CCCC4)ccc32)cc1 | · | 119 | 97 | 107 |
| Cc1ccc(C)c(NC(=O)CSc2ncnc3nc(N4CCCC4)sc23)c1 | -4 | · | · | 108 |
| CCOc1ccc(C2NC(=O)c3c(COC)cc(C)nc3N2Cc2ccccc2)cc1OC (stereo unspecified) | 16 | 97 | 99 | 101 |
| O=C1c2ccccc2C(=O)N1CCCn1c(=O)oc2ccccc21 | · | 79 | 91 | 104 |
| O=C(Nc1ccc(-c2cn3cccnc3n2)cc1)c1ccccc1F | · | 85 | 59 | 111 |
| N=C1C(c2nc3ccccc3[nH]2)=C(O)CN1C1CCCC1 | 0 | 100 | 96 | 104 |
| Cc1ccccc1NC(=O)CSc1nccn1C | 13 | 105 | 91 | 101 |
| COc1ccccc1S(=O)(=O)Cc1ccc(C(=O)NCc2ccc(Cl)cc2)o1 | -10 | 110 | 81 | 105 |
| COc1cccc(/C=N/n2c(N)nc3ccccc32)c1OC | -7 | 98 | 94 | 95 |
| O=C(COc1cccc(-c2nc(-c3ccccc3)no2)c1)N1CCCC1 | 7 | · | · | 108 |
| COc1ccc(-c2c(C)nn3c(N4CCC(C(=O)NCCC(C)C)CC4)cc(C)nc23)cc1OC | -25&-29 | 102 | 90 | 107&102 |
| Cc1cc(NC(=O)N2CCC(C)(C(=O)NCc3ccc4c(c3)OCO4)CC2)ccc1Br | -11 | · | · | 103 |
| COC(=O)c1c(C)oc(C)c1S(=O)(=O)Nc1ccc(C(C)C)cc1 | 10 | 85 | 90 | 98 |
| CCc1ccc(-n2c(SCc3ccccc3C)nc3[nH]ncc3c2=O)cc1 | · | 67 | 67 | 103 |
| O=C(N/N=C/c1ccccc1O)C12CC3CC(CC(C3)C1)C2 | 6 | 74 | 71 | · |
| CCC(Sc1nnc(-c2ccccc2NC(C)=O)c(=O)[nH]1)C(=O)Nc1ccc(C)cc1C (stereo unspecified) | -24 | · | · | 97 |
